# From PubChem BioAssay
# TRPML1 blocker – qHTS for Inhibitors of the Human Mucolipin Transient Receptor Potential 1 (TRPML1) | Mucolipin-1 (Homo sapiens), Q9GZU1 | TRPML1-inducible cells, Ca2+ dye fluorescence, FDSS; hits give low values; inhibition of EC80 agonist-evoked calcium signal | activity change, negative = inhibition, % (no concentration beside the values) | 0.02% of 390,000 active | AID 624415, 2012; in the data active means activity change below about -50%; inconclusive means about -30% to -50%; inactive means above about -30%;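 note: stimulus is agonist 54-4 at its EC80 concentration; % is set by controls: 0 for no effect and ±100 for the full control effect; compound concentration not given in the record; the text of the record puts the active cut at -80%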
#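 Tet-induced TRPML1-DL cells loaded with Ca8 no-wash calcium dye were read kinetically on FDSS. Compound addition was followed by EC80 agonist 54-4 (4 uM final); inhibition was read over 110 s.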
# PINK1 modulator – A Quantitative High throughput Screen to Identify Chemical Modulators of PINK1 Expression. PINK1 immunofluorescence, high-content cytometry, 24 h. Potency, µM (titrated, usually from 76.6 µM), for inactives: at the top dose activation (PINK1 increase), hits mostly activators. 0.2% of 410,000 active. AID 624263, 2012; active = well fitted activation curve with a large enough effect; inconclusive = small, poorly fitted or top-dose-only effect; inactive = flat fitted curve, though single readings scatter; cell line not stated here;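 note: potency is the fitted concentration of half-maximal effect; % of control where 0% means no effect; nearly all actives have a fitted effect of over 65% in size; a mitochondrial uncoupler was the plate control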
#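 PINK1 protein level read as immunofluorescence by microplate cytometer in a fixed, stained stable cell line after 24 h exposure to five compound concentrations, with CCCP as control.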
# CtBP-E1A inh – qHTS Assay for Inhibitors of the CtBP/E1A Interaction; CtBP / adenovirus E1A interaction (AlphaScreen); AlphaScreen GST-E1A/His-CtBP binding, 1536-well; hits give low values; control for the full effect not named in the record; activity change, % (test concentration not listed); 0.49% of 340,000 active; AID 651724, 2012; in the data active means activity change below about -65%; inconclusive means about -30% to -65%; inactive means above about -30%; note: % is set by controls: 0 for no effect and ±100 for the full control effect; compound concentration not given in the record
#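 Protein mix (5X: 125 nM each GST-E1A, His-CtBP) was incubated with pinned compound 2 h at 37 deg C in dark, in 50 mM Tris pH 8.0 buffer with 300 mM NaCl. Glutathione donor and nickel acceptor beads followed; AlphaScreen signal read after 1 h.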
# D2 agonist – Beta-Arrestin HTS for Positive Allosteric Modulators of the Human D2 Dopamine Receptor: Agonists; 0.084% of 360,000 active; DiscoveRx PathHunter D2 beta-arrestin, luminescence, 90 min; 100% = 57 uM dopamine signal; AID 624465, 2012; activation, % (test concentration not listed); D(2) dopamine receptor (Homo sapiens), P14416; in the data active = activation above about 40%; inconclusive = about 15% to 40%; inactive = below about 15%; note: compound concentration not given in the record; the text of the record calls up to 30% inactive
#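 Agonist mode: compounds alone added to overnight-plated D2 PathHunter cells for 90 min at 37 C, with 57 uM final dopamine (EC100) defining full response. Beta-arrestin recruitment detected by chemiluminescent reagent, read after 1 h at ambient temperature.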
# Six1-Eya2 inh – qHTS Assay for Inhibitors of the Six1/Eya2 Interaction | activity change, % (no concentration beside the values) | 0.56% of 360,000 active | Homeobox protein SIX1 (Homo sapiens) + Protein phosphatase EYA2 (Homo sapiens), … | AlphaScreen GST-Six1/His-Eya2 binding, biochemical; hits give low values; control for the full effect not named in the record; in the data active = activity change below about -65%; inconclusive = about -30% to -65%; inactive = above about -30%; note: % is set by controls: 0 for no effect and ±100 for the full control effect; compound concentration not given in the record
# Target sequence (O00167 whole entry, looked up): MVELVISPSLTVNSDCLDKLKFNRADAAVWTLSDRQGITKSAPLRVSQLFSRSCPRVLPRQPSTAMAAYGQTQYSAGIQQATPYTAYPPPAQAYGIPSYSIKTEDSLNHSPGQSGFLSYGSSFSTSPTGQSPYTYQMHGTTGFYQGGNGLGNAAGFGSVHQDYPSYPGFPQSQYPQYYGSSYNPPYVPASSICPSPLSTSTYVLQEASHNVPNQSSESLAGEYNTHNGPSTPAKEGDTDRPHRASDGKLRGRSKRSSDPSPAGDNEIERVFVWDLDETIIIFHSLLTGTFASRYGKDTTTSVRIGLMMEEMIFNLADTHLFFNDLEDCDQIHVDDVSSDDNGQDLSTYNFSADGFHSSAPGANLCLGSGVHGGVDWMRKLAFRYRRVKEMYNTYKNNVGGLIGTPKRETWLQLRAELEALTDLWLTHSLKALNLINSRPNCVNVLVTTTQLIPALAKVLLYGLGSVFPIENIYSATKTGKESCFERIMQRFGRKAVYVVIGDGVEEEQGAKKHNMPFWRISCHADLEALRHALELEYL
# Target sequence (Q15475 whole entry, looked up): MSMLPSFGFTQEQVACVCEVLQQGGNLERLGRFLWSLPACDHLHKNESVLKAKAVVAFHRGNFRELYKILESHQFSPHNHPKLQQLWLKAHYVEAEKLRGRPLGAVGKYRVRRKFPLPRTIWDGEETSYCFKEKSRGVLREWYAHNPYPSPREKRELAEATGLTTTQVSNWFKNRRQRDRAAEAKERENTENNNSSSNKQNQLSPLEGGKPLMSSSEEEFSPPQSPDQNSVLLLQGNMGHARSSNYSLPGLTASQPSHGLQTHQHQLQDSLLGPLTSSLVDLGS
#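 Homogeneous AlphaScreen proximity assay pairing GST-Six1 with His-tagged Eya2 (added as 5X mix: 250 nM and 500 nM) in 50 mM Tris pH 8.0, 300 mM NaCl, 1 mM TCEP. Glutathione donor and nickel acceptor beads; 1 h, 37 °C, dark.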
# TRPML1 agonist – qHTS for Agonists of the Human Mucolipin Transient Receptor Potential 1 (TRPML1). TRPML1-expressing cells, Ca2+ dye fluorescence, FDSS; host cell line not named in the record; reference of the full effect not given here. activation, % (concentration not given with the values). 0.12% of 410,000 active. AID 624414, 2012; in the data active = activation above about 50%; inconclusive = about 30% to 50%; inactive = below about 30%; note: 0% is about no effect; the text of the record puts the active cut at 80%
#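 TRPML1-DL cells, Tet-induced overnight (~16 h, 37 degrees C), loaded 45-90 min at room temperature with Ca8 no-wash calcium dye plus quencher. FDSS fluorescence: 10 s baseline, compound pin-transfer, 110 s agonist read, then EC80 54-4 (4uM final) and 110 s antagonist read.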
# * hit, by the source's call; ? = inconclusive; · = not tested or not shown; [ ] = another dose, or the depositor's remark.
SMILES,TRPML1 blocker,PINK1 modulator,CtBP-E1A inh,D2 agonist,Six1-Eya2 inh,TRPML1 agonist
C=C(C)c1cccc(C(C)(C)NC(=O)NCC2COCCO2)c1 (configuration not stated),-8,-1.7%,-3,1.8,0,3.3
Cc1ccc(-c2nnc(SCC(=O)Nc3nc4c(s3)CCCC4)n2C)cc1,-3,?,5,1.0,3,0.1
COc1cccc2cc(C(=O)NCCN3CCOCC3)c(=O)oc12,12,0.4%,·,-1.9,-1,-0.4
COc1cc(OC)cc(C(=O)NC(=S)Nc2ccc3[nH]c(=O)[nH]c3c2)c1,-8,2.7%,21,-1.3,2,-1.5
Cc1cc(CN(C)C(=O)c2cc(COc3ccc(C)c(C)c3)on2)on1,7,1.3%,7,0.8,6,1.8
CCc1cc(=O)oc2cc(C)cc(OC(C)C(=O)NCCCn3ccnc3)c12 (configuration not stated),0,-0.4%,5,-4.8,-1,-0.5
CCCCOC(=O)c1ccc(OC(=O)N2CCOCC2)cc1,-6,2.3%,·,5.8,0,-0.2
COCCn1c(N)c(C#N)c2nc3ccccc3nc21,-7,-2.6%[38.3 µM],-18,1.4,-11,-0.5
CN(CC(=O)NCc1ccco1)CC(=O)Nc1cc(S(C)(=O)=O)ccc1Cl,-8,1.3%,8,-4.5,-5,-0.6
COC(=O)/C=c1/s/c(=C(/C#N)C(=O)NCc2ccccc2)n(-c2ccccc2)c1=O,15,3.1%,0,-1.4,19,0.0
Cc1cccc(OCC(=O)NNC(=O)c2ccccc2OCc2c(C)noc2C)c1,-3,0.0%,-6,-2.5,0,0.5
c1ccc(-c2nnc(CN3CCN(C(c4ccccc4)c4ccccc4)CC3)o2)cc1,-15,1.6%,-24,-7.4,-10,-0.3
CC12CC3(C)CC(C)(C1)CC(C(=O)NCC(=O)O)(C2)C3,-9,0.2%,6,-0.3,8,0.1
CC(C)C(NC(=O)OCc1ccccc1)C(=O)NC(Cc1c[nH]c2ccccc12)C(=O)O (configuration not stated),·,3.0%,4,-3.5,-1,-0.5
Cc1nc(N2CCOCC2)sc1C=O,-19,0.5%,6,-19,8,1.2
COc1ccc(C2OC[C@H]3O[C@H](O)[C@H](NC(C)=O)[C@@H](O)[C@@H]3O2)cc1 (some centres not stated),-14,-1.2%,-5,6.7,1,0.5
CN(Cc1nc(-c2cccnc2)no1)S(=O)(=O)c1ccc(Br)cc1,-15,1.7%,-2,-0.9,10,-0.8
CCOC(=O)Cc1csc(N)n1,1,-2.3%[38.3 µM],-6,0.3,-2,-0.4
CN(CCC(=O)c1ccccc1)CCC(=O)c1ccccc1,18,-0.7%,7,-2.5,43,0.7
O=C(NCC1CCCO1)c1cccc(Br)c1 (configuration not stated),-1,8.0%[38.3 µM],4,0.2,6,-0.2
O=C(CN(Cc1ccccc1)C(=O)CCC(=O)Nc1ccccn1)NCCc1ccccc1,31,-1.7%,5,0.1,-6,0.7
CCc1nnc(NC(=O)C(=O)c2cc(C)n(-c3ccccc3)c2C)s1,-18,0.2%,·,·,·,0.5
COc1ccc(-n2c(Cc3cccn3C)nnc2SCC(=O)NCC2CCCO2)cc1 (configuration not stated),-18,-2.4%,2,-1.8,0,2.5
COc1ccc2nc(NNC(=O)COc3ccccc3)sc2c1,22,1.7%,0,8.1,-5,0.6
CCC(=O)NCCCCCCNC(=O)CC,-1,-1.4%[38.3 µM],7,-0.7,4,0.2
COc1ccccc1C(=O)Nc1ccc(C(=O)/C=C/c2cccs2)cc1,48,1.3%,0,-0.2,16,0.3
C=CCN(c1ccccc1)S(=O)(=O)c1cccc(C(=O)Nc2cccc(C)n2)c1,-5,-1.4%,0,0.9,10,3.1
O=C(C[N+]1(CC#Cc2ccccc2)CCCCC1)c1ccccc1,-28,2.8%,-1,1.6,0,1.4
CC1CN(C(=O)COc2coc(CN3CCc4ccccc4C3)cc2=O)CC(C)O1 (configuration not stated),-1,0.5%,6,8.5,2,-0.2
O=C(CS(=O)(=O)c1ccccc1)c1cc2ccccc2oc1=O,-5,1.6%,·,0.5,1,0.7
Cc1ccc(NC(=O)Cn2cc(S(=O)(=O)c3ccccc3)c(=O)c3cc(F)ccc32)cc1,-20,?,-1,-1.9,9,0.0
CC1Sc2ccc(S(=O)(=O)N3CCC(C(=O)NCc4ccco4)CC3)cc2NC1=O (configuration not stated),-2,-0.3%,-6,-8.7,-2,-0.5
CCCCCCCN=C(C)c1ccccc1O,8,1.3%,2,-6.4,1,-0.5
CCNC(=S)Nc1ccc2c(c1)c(=O)n(C)n2Cc1cccc(C(F)(F)F)c1,·,0.5%,3,3.6,-3,-0.8
COc1cc(-c2nc(-c3ccc4c(c3)-c3ccccc3S4(=O)=O)c(-c3ccccc3)[nH]2)cc(OC)c1OC,13,0.5%,-4,-1.2,-4,0.7
Nc1cc(Cl)ccc1Oc1ccc(Cl)cc1,56,0.4%[38.3 µM],19,-3.2,11,0.5
CCN1/C(=C/c2ccc3ccccc3[n+]2CC)C=Cc2ccccc21,18,?,?,-9.7,-70*,-0.9
O=C(COc1ccc([N+](=O)[O-])cc1)NCC1(N2CCOCC2)CCCCC1,6,0.5%,·,·,·,-0.7
CN1CCN(c2ccc3sc(-n4ccc5ccccc54)nc3c2)CC1,3,2.4%,-11,-0.8,-29,0.0
CN(C(=O)CSc1nc(-c2ccccc2)cn1N)C(c1ccccc1)c1ccccc1,0,1.0%[38.3 µM],-28,-5.9,?,-0.5

# Single records (already shown). Order of values: TRPML1 blocker | PINK1 modulator | CtBP-E1A inh | D2 agonist | Six1-Eya2 inh | TRPML1 agonist
# Listed for Nc1cc(Cl)ccc1Oc1ccc(Cl)cc1 → 56 | 0.4%[38.3 µM] | 19 | -3.2 | 11 | 0.5
# Listed for O=C(COc1ccc([N+](=O)[O-])cc1)NCC1(N2CCOCC2)CCCCC1 → 6 | 0.5% | · | · | · | -0.7
# Listed for C=CCN(c1ccccc1)S(=O)(=O)c1cccc(C(=O)Nc2cccc(C)n2)c1 → -5 | -1.4% | 0 | 0.9 | 10 | 3.1
# Listed for CN(C(=O)CSc1nc(-c2ccccc2)cn1N)C(c1ccccc1)c1ccccc1 → 0 | 1.0%[38.3 µM] | -28 | -5.9 | ? | -0.5
# Listed for COc1ccc(-n2c(Cc3cccn3C)nnc2SCC(=O)NCC2CCCO2)cc1 (configuration not stated) → -18 | -2.4% | 2 | -1.8 | 0 | 2.5

# Continuation:
SMILES,TRPML1 blocker,PINK1 modulator,CtBP-E1A inh,D2 agonist,Six1-Eya2 inh,TRPML1 agonist
O=S(=O)(c1ccc(F)cc1)c1nc(-c2ccco2)oc1NCCCn1ccnc1,-15,-0.1%,3,-2.2,-16,0.0
COc1cccc(CN2C(=O)Nc3ccccc3C(=O)N2C(C)(C)C)c1,-4,0.7%,-3,-2.2,8,-0.8
Cc1ccn2c(=O)nc(SCC(=O)c3ccc(Cl)cc3)nc2c1,-4,0.4%,-1,1.2,-1,0.1
O=C(NCCn1cc(SCc2ccccc2)c2ccccc21)c1c(F)cccc1F,7,0.8%,-1,-2.8,-6,-0.5
O=C(CNS(=O)(=O)c1c(Cl)cccc1Cl)OCC(=O)N1CCN(c2ccccc2)CC1,8,0.2%,2,-4.9,1,-0.2
CC(C)N(C)Cc1nnnn1CC(=O)NCCc1cccc(C(F)(F)F)c1,2,1.7%,-1,-1.1,2,0.1
O=C(NCc1ccco1)c1nn2c(C(F)(F)F)cc(-c3cccs3)nc2c1Br,-5,13%,-23,-6.1,-19,-1.4
CC(=O)Nc1ccc(S(=O)(=O)NCCOc2ccc(Cl)cc2C)cc1,74,-2.1%,-13,-2.3,12,1.2
COC(=O)c1cc2ccsc2n1Cc1cc(=O)n2ccccc2n1,54,-0.3%[38.3 µM],2,-2.0,0,-0.3
CCOc1ccccc1NC(=O)C1CCN(c2ccc(S(=O)(=O)N3CCCC3)cc2)CC1,-2,0.0%[38.3 µM],-12,-2.6,-5,-0.2
CCN(CC(=O)Nc1ccccc1OC)CC(=O)Nc1ccccc1-c1ccccc1,10,0.7%,5,2.5,0,1.2
c1ccc(Cn2nnnc2C(c2ccccn2)N2CCOCC2)cc1 (configuration not stated),3,·,4,0.2,7,-0.1
C/C(=N\NC(=S)NC1CCCCC1)c1ccc(C#N)cc1,0,2.3%,5,-1.4,0,-0.8
CC1=C(Sc2ccccn2)C(=O)NC(C)(C)C1,-17,-1.5%,-7,-1.1,3,-0.1
CCCOc1cccc(C(=O)O)c1,7,1.9%,6,-1.6,0,-1.0
CCc1ccc(NCc2cc3ccc(OC)cc3n(CC(=O)Nc3c(C)cc(C)cc3C)c2=O)cc1,10,0.5%,·,·,·,2.5
CCOc1cc(-c2nnc(SCC(=O)NCCCOC)nc2-c2ccc(OC)c(OCC)c2)ccc1OC,5,3.3%,·,·,·,1.0
Cc1ccccc1C(=O)N1CC(=O)Nc2ccc(F)cc2C1c1ccccc1 (configuration not stated),15,3.2%,0,6.3,0,0.5
Clc1ccc(Nc2nc(-c3ccccc3)c3cc(Cl)ccc3n2)cc1,-16,-0.1%,·,·,·,-0.2
Cc1ccc(C(=O)Nc2ncccc2C)cc1S(=O)(=O)N1CCCCC1,2,4.1%,-2,?,10,-0.2
COc1ccc(CNC(=O)CSc2n[nH]c(C)c2[N+](=O)[O-])cc1,6,6.4%,5,-1.5,0,0.6
COc1cccc(CC(NC(C)=O)C(=O)NC2CCN(C(=O)C3CC3)CC2)c1OC (configuration not stated),3,-2.5%,·,3.9,-1,-0.3
CCn1cc(C(=O)NCc2cccnc2)c(=O)c2cc(F)c(N3CCN(C(=O)c4ccco4)CC3)cc21,4,0.3%,-19,3.4,?,1.1
CCc1cn([C@H]2C[C@H](O)[C@@H](CO)O2)c(=O)[nH]c1=O,6,2.6%,3,-3.6,-3,-0.6
CCOC(=O)CSc1nc2c(c(=O)n(C)c(=O)n2C)n1Cc1ccccc1F,22,2.2%,0,1.1,1,3.4
COc1cc(C(C)=O)ccc1OCC(=O)N1CCc2ccccc2C1,12,6.7%,-1,-4.4,-3,0.7
COc1cc(CNc2ccc(S(N)(=O)=O)cc2)ccc1OCC(=O)NC1CCCCC1,-7,1.8%,-11,0.2,-1,0.1
C(=Cc1nc2ccccc2o1)c1ccc2c(c1)OCO2,3,11%,0,-5.1,-1,0.3
O=c1cc(C(F)(F)F)[nH]c(=O)n1C1CCCCC1,0,1.8%,3,-0.8,2,-0.6
COc1ccc(OC)c(C2C(C(C)=O)=C(O)C(=O)N2CCc2ccc(OC)c(OC)c2)c1 (configuration not stated),1,-1.3%,3,0.3,1,-0.9
